Screens (PubChem)
Mtb H37Rv: M. tuberculosis H37Rv growth inhibitors, H37Rv strain (AID 1626); M. tuberculosis H37Rv growth inhibition; higher % means a stronger effect; inhibition, % at 10 µM; hits with a dose series show IC50 in µM; 220,000 tested, 0.95% active;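 active means confirmed in a dose series; inconclusive means inhibition above 80% but not taken into the dose series; inactive means below 80% or under 30% at every dose of the series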;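 further: bacteria incubated seven days before Alamar blue readout; 0% = bacteria only wells and 100% = bacteria with antibiotic wells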
YopH inh: inhibitors of Yersinia enterocolitica YopH tyrosine phosphatase; 140,000 tested, 0.16% active; fluorescence Ex485/Em525; inhibition, %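 (about 10 µM by stock and volumes)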;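 active means inhibition of 50% or more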;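 further: controls were vehicle for no effect and minimum signal wells for full effect; inactives centre near -20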
RecA splice inh: blocks M. tuberculosis RecA intein splicing; inhibition, %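 (about 9 µM by stock and volumes)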; 290,000 tested, 0.75% active; cell-free RecA intein splicing, fluorescence; P9WHJ3; in the data active means inhibition above about 30%; inconclusive means no clear call, values can overlap the other calls;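 further: 0% = vehicle wells and 100% = reference inhibitor control wells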
Target sequence (P9WHJ3 whole entry, looked up, canonical isoform): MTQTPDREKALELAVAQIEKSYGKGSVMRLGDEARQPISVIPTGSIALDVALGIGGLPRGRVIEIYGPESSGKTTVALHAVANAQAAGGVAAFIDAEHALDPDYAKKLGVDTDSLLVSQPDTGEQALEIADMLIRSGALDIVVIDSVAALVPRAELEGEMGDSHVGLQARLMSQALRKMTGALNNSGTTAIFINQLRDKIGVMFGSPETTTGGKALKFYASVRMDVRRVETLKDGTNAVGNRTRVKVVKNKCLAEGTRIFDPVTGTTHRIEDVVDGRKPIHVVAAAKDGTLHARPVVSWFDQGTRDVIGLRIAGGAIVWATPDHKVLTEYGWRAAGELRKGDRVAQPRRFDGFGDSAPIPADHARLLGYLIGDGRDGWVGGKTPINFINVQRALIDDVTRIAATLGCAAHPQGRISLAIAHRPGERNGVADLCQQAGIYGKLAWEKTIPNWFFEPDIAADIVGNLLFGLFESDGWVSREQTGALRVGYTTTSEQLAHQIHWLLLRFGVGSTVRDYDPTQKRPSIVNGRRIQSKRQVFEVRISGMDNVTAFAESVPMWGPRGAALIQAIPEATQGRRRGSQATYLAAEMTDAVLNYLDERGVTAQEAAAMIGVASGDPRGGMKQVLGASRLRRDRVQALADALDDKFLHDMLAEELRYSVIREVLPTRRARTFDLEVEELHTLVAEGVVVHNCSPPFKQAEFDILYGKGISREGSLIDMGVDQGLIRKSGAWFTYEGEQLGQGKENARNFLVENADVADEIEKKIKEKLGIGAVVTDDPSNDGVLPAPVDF
Mtb betalactam: beta-lactam sensitization of Mtb H37Rv. M. tuberculosis H37Rv growth with meropenem, percent inhibition; hits of this screen are not shown here. 330,000 tested, 0.27% active. AID 434955. inhibition, % at 25 µM;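 active means about 74% or more and at least 40 points above the plate without the antibiotic, then above 30% in a dose series; inconclusive means first-round hits that could not be retested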;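 further: growth measured after seven days incubation then overnight dye step; 0% = bacteria only wells and 100% = bacteria with antibiotic; twin plates without the antibiotic show which effects depend on it; some results filed as inactive read as strong as hits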
Arbovirus inh: blocks arbovirus infection; arbovirus infection cell-based antiviral screen; 200,000 tested, 0.37% active; AID 1251; inhibition, % at 10 µM;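 active means inhibition from about 30%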;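 further: bluetongue infection of BSR cells; cell survival read as ATP light after 72 h; 0% = infected wells without compound and 100% = uninfected wells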
Arbovirus inh repeat: further read-out of Arbovirus inh, marked with its call; inhibition, %; measured here: 10K subset replicate screen; many hits read low in the repeat;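 first of two repeat runs on a subset; 0% = infected and 100% = uninfected wells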
Active calls of the source: *; i = inactive; ? = inconclusive; · = no result given. Only part of the results is shown; the hit share may differ from the screen's.

SMILES	Mtb H37Rv	YopH inh	RecA splice inh	Mtb betalactam	Arbovirus inh	others
CCOC(=O)C1(Cc2cccc(OC)c2)CCCN(C(=O)CCN2CCCO2)C1 (centres undefined)	·	·	0.9	0	·
CSc1nc(Sc2ccccc2)c2ccccc2n1	-9%	-35	19	23	-8
Cc1[nH]c2ccccc2c1/C=C(\C#N)C(=O)NCC1CCCO1 (centres undefined)	-9%	·	-0.1	4	-8
Cc1cc(Br)c2[nH]c3c(c2c1)CCCC3=O	2%	1	0.7	28	24
CCOc1ccc(OCCSc2nc(C)cc(=O)[nH]2)cc1	1%	-16	·	-11	6
C/C(N)=C(/C#N)C(=O)CSc1nc2ccccc2[nH]1	3%	-38	2.1	-7	2
CCOc1ccccc1N(CC(=O)Nc1ccc2c(c1)OCCO2)S(C)(=O)=O	0%	-37	-0.7	5	-1
CCCCn1c(SCC(=O)N2CC(C)CC(C)C2)nc2cc(S(N)(=O)=O)ccc21 (centres undefined)	-2%	-29	1.8	0	-5
COc1ccc(CNCCC(c2ccc(F)cc2)c2ccc(OC)cc2)cc1 (centres undefined)	42%	-38	4.8	72	-30
Cc1cc(C(=O)CS(=O)c2ccc(F)cc2)cc(C)c1OC(=O)N(C)C (centres undefined)	0%	·	-1.3	-2	-2
CCC(NC(=O)CNC(=O)CNC(=O)c1ccc(Cl)cc1Cl)c1ccc(C)cc1 (centres undefined)	·	·	1.9	6	·
Nc1ccccc1-c1nc2ccccc2c(=O)o1	·	·	-6.5	61	·

The last seven entries of the part above come first, to join the parts:
SMILES	Mtb H37Rv	YopH inh	RecA splice inh	Mtb betalactam	Arbovirus inh	others
C/C(N)=C(/C#N)C(=O)CSc1nc2ccccc2[nH]1	3%	-38	2.1	-7	2
CCOc1ccccc1N(CC(=O)Nc1ccc2c(c1)OCCO2)S(C)(=O)=O	0%	-37	-0.7	5	-1
CCCCn1c(SCC(=O)N2CC(C)CC(C)C2)nc2cc(S(N)(=O)=O)ccc21 (centres undefined)	-2%	-29	1.8	0	-5
COc1ccc(CNCCC(c2ccc(F)cc2)c2ccc(OC)cc2)cc1 (centres undefined)	42%	-38	4.8	72	-30
Cc1cc(C(=O)CS(=O)c2ccc(F)cc2)cc(C)c1OC(=O)N(C)C (centres undefined)	0%	·	-1.3	-2	-2
CCC(NC(=O)CNC(=O)CNC(=O)c1ccc(Cl)cc1Cl)c1ccc(C)cc1 (centres undefined)	·	·	1.9	6	·
Nc1ccccc1-c1nc2ccccc2c(=O)o1	·	·	-6.5	61	·
Cc1ccnc(NC(=O)c2cccc(S(=O)(=O)N3CCN(c4ccccc4)CC3)c2)c1	·	·	3.0	-3	·
COc1cc(C(=O)N2CCN(C(=O)c3ccccc3)CC2)cc(OC)c1OC	-5%	-48	-1.4	6	7
COc1ccc(OC)c(CCNC(=O)C(C)n2nc(C)c3c(C)n(-c4ccccc4)nc3c2=O)c1 (centres undefined)	·	·	6.4	-4	·
CCOC(=O)N1CCN(C(=O)C2CCN(S(=O)(=O)CC)CC2)CC1	-2%	-59	-0.1	2	4
Cc1ccc(-c2nc(SC(C)C(=O)N3CCOCC3)n[nH]2)cc1 (centres undefined)	·	·	0.2	-16	·
COc1cccc(NC(=O)COC(=O)Cc2ccc(Br)cc2)c1	3%	·	2.0	0	1
COc1ccc2c(c1)C(=O)CC(c1ccc3c(c1)OCCO3)O2 (centres undefined)	·	·	-1.8	2	·
CC(CCc1ccccc1)NC(=O)Cc1cccs1 (centres undefined)	-3%	·	-2.5	12	-3
COc1ccc(NC(=O)N2CCCC2C(=O)NCc2ccccc2Cl)cc1 (centres undefined)	·	·	-0.4	0	·
CCOC(=O)c1cc2sccc2n1CC(=O)Nc1ccc(OC)cc1	-10%	8	·	3	-1
C/C(=N\NC(=O)c1cc(C)nc2ccccc12)c1cccs1	-2%	·	1.2	-3	·
c1cncc(-c2nnc3sc(C4CCCCC4)nn23)c1	-10%	-40	-0.1	-11	6
CN(C)CCOc1ccc(C(C)(C)c2ccccc2)cc1	-6%	·	3.2	-6	-2
O=C(CCc1ccc(S(=O)(=O)NC2CCCCC2)cc1)N(Cc1ccccc1)Cc1ccccc1	1%	18	3.9	-18	-5
CC(C)(C)n1nnnc1C(c1ccc(C(F)(F)F)cc1)N(Cc1ccccc1)Cc1ccco1 (centres undefined)	·	7	6.7	3	0
CN1C(=O)C(CC(=O)Nc2ccc(F)cc2)N(Cc2ccco2)C1=S (centres undefined)	2%	·	0.7	-8	7
Cc1ccc(Nc2nc(N)nc(CN3CCN(C(=O)c4ccco4)CC3)n2)cc1Cl	-2%	-9	4.1	-5	9
N/C(=N\OC(=O)c1ccccc1Cl)c1ccc(Cl)cc1	6%	2	9.3	39	0
C=CCc1cc(/C=C2/NC(=O)N(CC(=O)OC)C2=O)cc(OC)c1O	9%	·	-7.2	-5	15
C=CCn1c(O)c(C(C)=NCCCO)c(=O)[nH]c1=O	1%	13	0.6	-7	6
Cn1c(C(=O)O)cc2cc(Oc3ccccc3)ccc21	·	·	0.8	0	·
O=C(NC(=S)Nc1nc(-c2cccc([N+](=O)[O-])c2)cs1)c1cc(Cl)ccc1Cl	-1%	·	13	14	-19
O=C(CCN1C(=O)/C(=C\C=C\c2ccccc2)SC1=S)Nc1ccc(C(=O)O)cc1	·	·	11	3	·
CCOC(=O)C(NC(=O)c1ccccc1)(N1CCOCC1)C(F)(F)F (centres undefined)	6%	-19	-0.5	-2	5
O=C(O)CC(C(=O)OC1CCCCC1)N1CCOCC1 (centres undefined)	1%	-18	0.4	-6	5
CC(=O)c1cccc(NC(=O)Cn2cnc(S(=O)(=O)N3CCCC3)c2)c1	·	·	-1.3	-4	·
CCOC(=O)COc1ccsc1C(=O)OC	-8%	-39	-4.1	8	-2
COC(=O)c1cc2c(cc1N)OCCO2	-1%	·	1.5	-4	0
COc1cccc(C(=O)C2CCCN(C(=O)c3ccccn3)C2)c1 (centres undefined)	·	·	0.7	9	·
CCOc1ccc(C(=O)/C=C/c2ccc(OC)c(OC)c2)cc1	13%	·	1.4	95	10
COc1ccccc1N1CCN(C(=O)c2cc3c(s2)CCCCC3)CC1	·	·	11	5	·
N#Cc1c(Sc2ncc(C(F)(F)F)cc2Cl)nsc1C/C=N\OCc1ccccc1Br	-15%	-9	13	-8	5
Nc1ncnc(N2CCc3ccccc32)c1[N+](=O)[O-]	-4%	·	-5.6	21	19
CC(SC1=NCCS1)C(=O)Nc1nnc(-c2ccc(Br)cc2)s1 (centres undefined)	32%	-37	3.3	-1	0
Cn1ncc([N+](=O)[O-])c1C(=O)N/N=C/c1cccc([N+](=O)[O-])c1	-1%	·	-4.2	-2	-9
O=C(Cc1c(Sc2ccccc2)c2ccccc2n1Cc1ccccc1)NCCO	6%	-4	10	0	-12
CCCCOc1ccc(N2C(N)=NC(N)=NC23CCCCC3)cc1	·	·	0.4	2	·
CCOc1ccc(N(CC(=O)Nc2ccccc2C)S(=O)(=O)c2c(C)[nH]c(=O)[nH]c2=O)cc1	4%	·	-1.8	-5	·
CSc1cccc(CNC(=O)CC2C(=O)NCCN2CC(C)(C)C)c1 (centres undefined)	7%	·	-0.9	-6	2
Nc1ccccc1-c1nc2ccccc2s1	7%	·	-20	10	9
Cc1ccc(C(c2nnnn2Cc2ccccc2)N2CC=C(c3ccc(F)cc3)CC2)cc1 (centres undefined)	8%	-1	1.7	15	-8
CC(=O)c1ccc(N2CCN(S(=O)(=O)c3cccc(S(=O)(=O)N4CCOCC4)c3)CC2)cc1	-8%	-10	-1.6	4	5
COC(=O)[C@H]1C[C@@H]1[C@H](NS(=O)(=O)c1ccc2ccccc2c1)c1ccccc1	-16%	-16	2.6	-16	-2
Nc1cc([N+](=O)[O-])ccc1Nc1ccc(O)cc1	·	·	-0.9	100	·
Cc1ccc(S(=O)(=O)N(C)C)cc1NC(=S)N1CCc2ccccc21	-15%	·	-2.4	0	9
COC(=O)C(CSCc1ccccc1)NC(=O)CSc1nc(C)cc(=O)[nH]1 (centres undefined)	-4%	·	-2.9	-9	0
Cc1nnsc1C(=O)Nc1ccc(S(=O)(=O)N2CCCC(C)C2)cc1 (centres undefined)	·	·	3.1	-4	·
COc1ccc(OC)c(S(=O)(=O)N2CCN(c3ncccn3)CC2)c1	·	·	-0.1	-6	·
COc1ccc(N2CCN(C(=O)CCCCn3c(=O)[nH]c4ccsc4c3=O)CC2)cc1	-9%	·	-1.3	4	23
Cc1cccc(N2CCN(c3nc4ccccc4n4cnnc34)CC2)c1C	65%	-37	1.4	-7	-2	Arbovirus inh repeat=-14
Cc1ccc(Nc2nc(N)c(C#N)c(CC#N)c2C#N)cc1	-1%	·	-2.9	0	-10
N/C(=N\OC(=O)/C=C/c1ccccc1)c1ccccc1	7%	-20	2.0	12	3
O=C(O)c1cccc(NC(=S)NC(=O)c2ccc(-c3ccccc3)cc2)c1	13%	·	1.5	12	28
CC(=O)CSc1nnc2cc(C)c3ccccc3n12	-9%	·	1.7	7	15
COc1ccc(OC)c(CN2CCN(Cc3cc(OC)c(OC)c(OC)c3)CC2)c1	·	·	-1.0	-8	·
O=C(Nc1nnc(C2CC2)s1)c1cccs1	·	·	2.5	-14	·
CN(C)CCCNC(=S)NCC(c1ccc(Cl)cc1Cl)c1c[nH]c2ccccc12 (centres undefined)	·	·	7.7	93	·
CCOC(=O)Cc1csc(SC(C)C(=O)NCC(=O)Nc2ccc(F)c(F)c2F)n1 (centres undefined)	·	·	1.4	-9	·
Cc1ccccc1-n1c(SCC(=O)N2CCCC2)nnc1-c1ccccn1	3%	-43	1.0	-1	7
CC(/C=C/c1ccccc1)=N\Nc1nc(C)cc(C)n1	8%	-5	-3.1	4	11

Molecules above that contain a COOH group, in the order listed:
SMILES	Mtb H37Rv	YopH inh	RecA splice inh	Mtb betalactam	Arbovirus inh	others
Cn1c(C(=O)O)cc2cc(Oc3ccccc3)ccc21	·	·	0.8	0	·
O=C(CCN1C(=O)/C(=C\C=C\c2ccccc2)SC1=S)Nc1ccc(C(=O)O)cc1	·	·	11	3	·
O=C(O)CC(C(=O)OC1CCCCC1)N1CCOCC1 (centres undefined)	1%	-18	0.4	-6	5
O=C(O)c1cccc(NC(=S)NC(=O)c2ccc(-c3ccccc3)cc2)c1	13%	·	1.5	12	28

(further entries)
SMILES	Mtb H37Rv	YopH inh	RecA splice inh	Mtb betalactam	Arbovirus inh	others
CC(C)OC(=O)CCCCCN1C(=O)CSC1=S	-1%	22	3.0	99	12
O=C(NCCCc1ccccc1)c1cnc2n(c1=O)CCS2	-7%	-17	-0.7	-18	6
N#CC(c1cccc(Cl)c1)c1ccc2c(C(F)(F)F)cc(C(F)(F)F)nc2n1 (centres undefined)	98%	-13	9.3	75	-31
COc1ccc(CC(NC(C)=O)C(=O)NC2CCN(C(=O)c3cnccn3)CC2)cc1 (centres undefined)	-8%	-24	0.1	-11	2
CN(C)C(=O)N1CCCC(C(=O)NCc2cccs2)C1 (centres undefined)	3%	-32	-1.0	-6	0
COc1ccc(-c2ccc(C(=O)C3CC3)cc2)cc1	·	·	-1.6	10	·
Cc1cc(Br)ccc1NC(=O)CN(C)C(=O)c1cc(S(=O)(=O)N(C)C)ccc1N1CCCC1	·	·	2.1	2	·
O=C(NCc1ccc(Cl)cc1)c1cccnc1	5%	-47	0.1	14	3	Arbovirus inh repeat=1
O=C(Cn1c(=O)n(Cc2ccco2)c(=O)c2c3c(sc21)CCCCC3)Nc1ccccc1	-1%	-5	13	-4	-3
CN(CC(=O)Nc1c(Cl)cccc1Cl)C(=O)c1cccc(-n2cccc2)c1	·	·	-0.9	-6	·
O=C1CC(=O)Nc2cc(S(=O)(=O)N3CCOc4ccc(Cl)cc43)ccc2N1	·	·	3.1	?	·
Cc1cnc(N)c2c(=O)oc3ccccc3c12	1%	·	-1.4	-6	-4	Arbovirus inh repeat=-2
COc1cc(NC(=O)c2ccc(C)cc2)ccc1NC(=O)c1cc2ccccc2o1	·	·	-22	-5	·
CC(C)Cn1c(N)c(C(=O)CSc2nc3ncc(Cl)cc3[nH]2)c(=O)n(C)c1=O	·	·	-2.5	3	·
COc1ccc(C2=NN(c3ccc(C(=O)O)cc3)C(c3ccc(OC)c(OC)c3)C2)cc1 (centres undefined)	·	·	i	2	·
Cc1ccnc(NC(=O)c2ccc(S(=O)(=O)N3CCCC3)cc2)c1	·	·	0.8	-1	·
